# Source: PubChem
# CtBP-E1A blk: CtBP/E1A binding inhibition; AlphaScreen GST-E1A/His-CtBP binding, 1536-well; stronger effect = lower value; control for the full effect not named in the record; activity change, % (test concentration not listed); 0.49% of 340,000 active; AID 651724; in the data active means activity change below about -65%; inconclusive means about -30% to -65%; inactive means above about -30%; also: % is scaled to controls: 0 for no effect and ±100 for the full control effect; compound concentration not given in the record
#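 Protein mix (5X: 125 nM each GST-E1A, His-CtBP) was incubated with pinned compound 2 h at 37 deg C in dark, in 50 mM Tris pH 8.0 buffer with 300 mM NaCl. Glutathione donor and nickel acceptor beads followed; AlphaScreen signal read after 1 h.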
# ClpP mod: qHTS Assay for Activators of ClpP; 1.9% of 340,000 active; purified B. subtilis ClpP, FRET peptide cleavage, 20 min; ATP-dependent Clp protease proteolytic subunit (Bacillus subtilis (strain 168)), P80244; AID 651965, 2013; Potency, µM (titrated, usually from 57.5 µM), without a hit: at the highest dose activity change, negative = active; active = well fitted falling curve with a large enough effect; inconclusive = small, poorly fitted or top-dose-only effect; inactive = no such curve, though single readings can be large or run the other way; also: potency is read from the fitted curve at half-maximal effect; the source files actives as falling curves though it sought activators and does not explain the sign; nearly all actives have a fitted effect of over 65% in size; many hits overshoot -100%
# Target sequence (P80244 whole entry, looked up): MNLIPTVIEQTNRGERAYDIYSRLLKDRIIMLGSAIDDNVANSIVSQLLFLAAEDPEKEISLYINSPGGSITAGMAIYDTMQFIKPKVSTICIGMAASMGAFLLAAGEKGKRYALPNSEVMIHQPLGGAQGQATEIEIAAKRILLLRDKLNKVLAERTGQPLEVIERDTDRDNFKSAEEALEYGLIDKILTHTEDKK
#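 ClpP 10 microg/mL final, pH 8 Tris/KCl buffer with BSA, glycerol, Tween-20; compound pinned in; FRET-FV substrate; RT 20 min; Ex320/Em430; ΔFRET vs ADEP 5.8 microM, DMSO, no enzyme.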
# * marks the source's active call; other numbers are inactive results; ? = inconclusive; . = no result given. Some of the compounds tested. The share of hits here may be higher or lower than overall.
SMILES,CtBP-E1A blk,ClpP mod
CN(C)c1ccc(N=Nc2ccccc2)cc1,.,1.1%
COc1cc([C@@H]2c3cc4c(cc3[C@H](OC(C)=O)[C@H]3COC(=O)[C@@H]23)OCO4)cc(OC)c1OC,.,-0.5%
FC(F)(F)c1ccc(-c2ccc3c(c2)CNCc2cnnn2-3)cc1,5,-5.0%
CCCCn1nnnc1C(c1ccc(OC)cc1)N1CCC2(CC1)C(=O)NCN2c1ccccc1 (stereo not given),?,-5.0%
CCCCn1nnnc1C(CCc1ccccc1)N1CCC2(CC1)C(=O)NCN2c1ccccc1 (stereo not given),-13,1.1%
CC12Nc3ccccc3C(=O)N1Cc1cnnn1-c1ccccc12 (stereo not given),0,4.5%
CN(Cc1cccc(-c2ccncc2)c1)C(=O)Oc1ccccc1Cl,-10,1.6%
O=C1NCN(c2ccccc2)C12CCN(C(CCc1ccccc1)c1nnnn1-c1ccc3c(c1)OCCO3)CC2 (stereo not given),-13,-2.3%
CCOC(=O)[C@]12Cc3cc(OC)ccc3[C@H]1N(C1CCCCC1)C(=O)c1ccccc12,-10,-0.1%
CCOC(=O)[C@]12Cc3cc(OC)ccc3[C@H]1N(Cc1ccccc1)C(=O)c1cc(OC)ccc12,-12,-4.8%
COc1ccc(-c2ccc3c(c2)CN(C(=O)CCc2ccccc2)Cc2cnnn2-3)cc1,-14,5.0%
Nc1ccc(CC(N)c2csc(Nc3ncccn3)n2)cc1 (stereo not given),-75*,-0.6%
CCCCn1nnnc1C(c1ccccc1)N1CCC2(CC1)C(=O)NCN2c1ccccc1 (stereo not given),0,-0.4%
O=C1NCN(c2ccccc2)C12CCN(C(c1ccccc1OC(F)(F)F)c1nnnn1C1CCCCC1)CC2 (stereo not given),-5,-0.7%
Clc1cccc(N2Cc3cc(-c4ccccc4)ccc3-n3nncc3C2)c1,0,-18%
COc1ccc(-n2nnnc2C(c2cccs2)N2CCC(n3c(=O)[nH]c4ccccc43)CC2)cc1 (stereo not given),-11,0.0%
COc1ccc(-c2ccc3c(c2)CN(CC(C)C)Cc2cnnn2-3)cc1,-19,5.4%
COc1cccc(C(c2nnnn2-c2ccc3c(c2)OCCO3)N2CCC3(CC2)C(=O)NCN3c2ccccc2)c1OC (stereo not given),-13,-2.1%
COc1ccc(C(c2nnnn2C2CCCC2)N2CCC3(CC2)C(=O)NCN3c2ccccc2)cc1 (stereo not given),-4,1.1%
CCC(=O)[C@@H](C)[C@@H](O)[C@H](C)C[C@@H](C)C1OC(=O)C[C@@]2(O)CC=C(C)C(O2)C(C)=CCCC[C@H](O[C@H]2C[C@@H](OC(N)=O)[C@H](O)[C@@H](C)O2)C=C[C@H](C)C[C@H]1C (stereo not given in full),-12,1.0%
COc1ccc(-n2nnnc2C(c2ccccc2)N2CCC(n3c(=O)[nH]c4ccccc43)CC2)cc1 (stereo not given),-15,-4.2%
O=C1NCN(c2ccccc2)C12CCN(C(c1cc3ccccc3o1)c1nnnn1-c1ccc3c(c1)OCCO3)CC2 (stereo not given),-14,-3.0%
CC(C)(C)n1nnnc1C(CCc1ccccc1)N1CCC2(CC1)C(=O)NCN2c1ccccc1 (stereo not given),-12,2.0%
CC(C)(C)n1nnnc1C(c1cc2ccccc2o1)N1CCC2(CC1)C(=O)NCN2c1ccccc1 (stereo not given),-12,-4.5%
COc1cc([N+](=O)[O-])c2ncccc2c1[N+](=O)[O-],?,-1.2%
COc1ccc(-n2nnnc2C(c2ccnc3ccccc23)N2CCC3(CC2)C(=O)NCN3c2ccccc2)cc1 (stereo not given),-7,3.2%
CCOC(=O)[C@]12Cc3cc(OC)ccc3[C@H]1N(CC(=O)OC)C(=O)c1ccccc12,5,-1.5%
C=CCCC[C@@H]1OC(=O)CNC(=O)C([C@@H](C)CC)NC(=O)[C@@H]2CCCN2C(=O)C([C@@H](C)CC)OC(=O)[C@H](Cc2ccccc2)N(C)C(=O)[C@H](C(C)C)NC(=O)C1(C)C (stereo not given in full),-20,0.2%
COC(=O)[C@@H]1N=C(c2ccc(OC)cc2)O[C@]12C(=O)N(Cc1ccccc1)c1ccccc12,-1,-3.4%
O=S(=O)(c1cc(Cl)cc(Cl)c1)N1Cc2cc(N3CCOCC3)ccc2-n2nncc2C1,-21,-13%

# Single values from the entries so far:
# C=CCCC[C@@H]1OC(=O)CNC(=O)C([C@@H](C)CC)NC(=O)[C@@H]2CCCN2C(=O)C([C@@H](C)CC)OC(=O)[C@H](Cc2ccccc2)N(C)C(=O)[C@H](C(C)C)NC(=O)C1(C)C (stereo not given in full) – CtBP-E1A blk: -20
# O=C1NCN(c2ccccc2)C12CCN(C(c1cc3ccccc3o1)c1nnnn1-c1ccc3c(c1)OCCO3)CC2 (stereo not given) – CtBP-E1A blk: -14
# CC(C)(C)n1nnnc1C(c1cc2ccccc2o1)N1CCC2(CC1)C(=O)NCN2c1ccccc1 (stereo not given) – ClpP mod: -4.5%

# Next records.
SMILES,CtBP-E1A blk,ClpP mod
C(#CCN1CCCCC1)CN1CCCCC1,6,0.2%
COc1cccc(C(c2nnnn2Cc2ccccc2)N2CCC(n3c(=O)[nH]c4ccccc43)CC2)c1OC (stereo not given),-13,-0.9%
CN(C)P1(=O)N(C)CCN1C,1,0.4%
O=C1NCN(c2ccccc2)C12CCN(C(c1cccs1)c1nnnn1Cc1ccccc1)CC2 (stereo not given),-7,2.9%
CCOC(=O)c1cc2cc(OC)ccc2n1C1CCN(Cc2ccccc2)CC1,-7,4.5%
Fc1cccc(-c2ccc3c(c2)CN(C(=S)NCCc2ccccc2)Cc2cnnn2-3)c1,3,-0.2%
Cc1cccc(C)c1-n1nnnc1C(C1CC1)N1CCC2(CC1)C(=O)NCN2c1ccccc1 (stereo not given),-3,-0.6%
O=C1NCN(c2ccccc2)C12CCN(C(c1nnnn1C1CCCC1)C1CC1)CC2 (stereo not given),4,0.5%
CCOC(=O)[C@]12Cc3cc(C)ccc3[C@H]1N(Cc1ccccc1)C(=O)c1cc(F)c(F)cc12,5,-16%
C[C@@H]1COc2cccc(N3CCN(C)CC3)c2S(=O)(=O)N1,1,0.9%

# Part of the list above in a different format.
# The line under a structure holds: CtBP-E1A blk, ClpP mod
- Cc1cccc(C)c1-n1nnnc1C(C1CC1)N1CCC2(CC1)C(=O)NCN2c1ccccc1 (stereo not given)
→ -3, -0.6%
- C(#CCN1CCCCC1)CN1CCCCC1
→ 6, 0.2%

# Additional compounds
SMILES,CtBP-E1A blk,ClpP mod
COc1ccc(CN2Cc3cc(N4CCOCC4)ccc3-n3nncc3C2)cc1,0,-2.6%
COc1ccc2c(c1)C1OCCNC1CC2 (stereo not given),5,1.3%
COc1ccc(CN2Cc3cc(-c4cccc(F)c4)ccc3-n3nncc3C2)cc1,-23,?
CCOC(=O)[C@]12Cc3ccccc3[C@H]1N(C)C(=O)c1cc(OC)ccc12,6,0.5%
Cc1ccc2nc(-c3ccc(CN4CCC(n5c(=O)[nH]c6ccccc65)CC4)cc3)c(-c3ccccc3)nc2c1,-4,-13%
O=C1NCN(c2ccccc2)C12CCN(C(c1ccccc1OC(F)(F)F)c1nnnn1C1CCCC1)CC2 (stereo not given),0,2.2%
CC(C)(C)n1nnnc1C(c1cccs1)N1CCC2(CC1)C(=O)NCN2c1ccccc1 (stereo not given),-3,2.1%
O=c1[nH]c2ccccc2n1C1CCN(C(c2cc3ccccc3o2)c2nnnn2Cc2ccccc2)CC1 (stereo not given),?,-6.2%
O=C(NCP(=O)(Oc1ccccc1)Oc1ccccc1)OCc1ccccc1,5,-2.5%
c1ccc(CN2COC3CCCCCC32)cc1 (stereo not given),5,-1.9%
CCOC(=O)[C@]12Cc3cc(C)ccc3[C@H]1N(C)C(=O)c1cc(OC)ccc12,-6,0.3%
CSCCC(c1nnnn1C(C)(C)C)N1CCC(n2c(=O)[nH]c3ccccc32)CC1 (stereo not given),0,-3.8%
CCn1cc(CN2CCCC(C(=O)c3cccc(C(F)(F)F)c3)C2)cn1 (stereo not given),-9,-2.1%
COc1ccc(C(c2nnnn2-c2ccc(OC)cc2)N2CCC3(CC2)C(=O)NCN3c2ccccc2)cc1 (stereo not given),-14,-1.3%
CCOC(=O)[C@]12Cc3c(cc(OC)c(OC)c3OC)[C@H]1N(C1CCCCC1)C(=O)c1ccccc12,-11,0.6%

# An excerpt of these results, as tab-separated lines.
SMILES	CtBP-E1A blk	ClpP mod
CCCCn1nnnc1C(c1ccc(OC)cc1)N1CCC2(CC1)C(=O)NCN2c1ccccc1 (stereo not given)	?	-5.0%
CCCCn1nnnc1C(CCc1ccccc1)N1CCC2(CC1)C(=O)NCN2c1ccccc1 (stereo not given)	-13	1.1%
CC12Nc3ccccc3C(=O)N1Cc1cnnn1-c1ccccc12 (stereo not given)	0	4.5%
CN(Cc1cccc(-c2ccncc2)c1)C(=O)Oc1ccccc1Cl	-10	1.6%
O=C1NCN(c2ccccc2)C12CCN(C(CCc1ccccc1)c1nnnn1-c1ccc3c(c1)OCCO3)CC2 (stereo not given)	-13	-2.3%
CCOC(=O)[C@]12Cc3cc(OC)ccc3[C@H]1N(C1CCCCC1)C(=O)c1ccccc12	-10	-0.1%
CCOC(=O)[C@]12Cc3cc(OC)ccc3[C@H]1N(Cc1ccccc1)C(=O)c1cc(OC)ccc12	-12	-4.8%
COc1ccc(-c2ccc3c(c2)CN(C(=O)CCc2ccccc2)Cc2cnnn2-3)cc1	-14	5.0%
Nc1ccc(CC(N)c2csc(Nc3ncccn3)n2)cc1 (stereo not given)	-75*	-0.6%
CCCCn1nnnc1C(c1ccccc1)N1CCC2(CC1)C(=O)NCN2c1ccccc1 (stereo not given)	0	-0.4%
O=C1NCN(c2ccccc2)C12CCN(C(c1ccccc1OC(F)(F)F)c1nnnn1C1CCCCC1)CC2 (stereo not given)	-5	-0.7%
Clc1cccc(N2Cc3cc(-c4ccccc4)ccc3-n3nncc3C2)c1	0	-18%
COc1ccc(-n2nnnc2C(c2cccs2)N2CCC(n3c(=O)[nH]c4ccccc43)CC2)cc1 (stereo not given)	-11	0.0%
COc1ccc(-c2ccc3c(c2)CN(CC(C)C)Cc2cnnn2-3)cc1	-19	5.4%
COc1cccc(C(c2nnnn2-c2ccc3c(c2)OCCO3)N2CCC3(CC2)C(=O)NCN3c2ccccc2)c1OC (stereo not given)	-13	-2.1%
COc1ccc(C(c2nnnn2C2CCCC2)N2CCC3(CC2)C(=O)NCN3c2ccccc2)cc1 (stereo not given)	-4	1.1%
CCC(=O)[C@@H](C)[C@@H](O)[C@H](C)C[C@@H](C)C1OC(=O)C[C@@]2(O)CC=C(C)C(O2)C(C)=CCCC[C@H](O[C@H]2C[C@@H](OC(N)=O)[C@H](O)[C@@H](C)O2)C=C[C@H](C)C[C@H]1C (stereo not given in full)	-12	1.0%
